Assay outcomes: PubChem, Johns Hopkins Ion Channel Center
Kir21 block: inhibitors of mouse Kir2.1 inward-rectifier potassium channel. 0.85% of 310,000 active. B-score at 10 µM. HEK293-Kir2.1, FluxOR thallium flux fluorescence; active compounds read low;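 active means fluorescence ratio B-score at or below minus 3 SD of library scores, with starting-brightness B-score within 2 SD, cut at about -4.2 in these data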;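 further: channel flux triggered by added potassium and thallium sulfate stimulus; B-score of peak minus minimum fluorescence over baseline after thallium stimulus; more negative B-score means stronger Kir2.1 block with less thallium influx; some compounds called inactive have numbers as strong as hits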
Target sequence (P35561 whole entry, looked up): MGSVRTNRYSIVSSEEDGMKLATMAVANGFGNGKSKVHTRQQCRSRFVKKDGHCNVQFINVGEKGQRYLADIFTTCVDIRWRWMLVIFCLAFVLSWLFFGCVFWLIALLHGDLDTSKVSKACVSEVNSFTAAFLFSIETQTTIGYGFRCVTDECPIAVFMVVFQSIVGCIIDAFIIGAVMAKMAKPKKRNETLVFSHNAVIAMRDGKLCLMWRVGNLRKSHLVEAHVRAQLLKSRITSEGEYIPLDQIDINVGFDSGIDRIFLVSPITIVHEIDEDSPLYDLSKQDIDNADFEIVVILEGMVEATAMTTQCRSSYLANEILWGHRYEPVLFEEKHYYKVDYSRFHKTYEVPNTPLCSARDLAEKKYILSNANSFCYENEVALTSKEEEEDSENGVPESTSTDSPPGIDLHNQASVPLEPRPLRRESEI
The depositor's hits bear a star. This is a subset; most or all hits stand in other tables.

| mol | Kir21 block |
| --- | --- |
| Cc1ccc(S(=O)(=O)N2CCCCC2)cc1C(=O)Nc1ccc(N2CCOCC2)cc1 | 0.13 |
| Cc1ccc(CNc2nc3ccccc3s2)s1 | 0.4 |
| COc1ccccc1N(CC(=O)NCC1CCCO1)C(=O)CNS(=O)(=O)c1ccccc1 (stereo not drawn) | -1.23 |
| Nc1ccc(S(=O)(=O)Nc2nc3ccccc3o2)cc1 | -1.04 |
| CN(C)CCCC(C)(O)C(Cc1ccccc1)c1ccccc1 (stereo not drawn) | -0.79 |
| Cc1ccc(C)c(N2C(=O)CS/C2=N\NC(=O)c2ccccc2Cl)c1 | -1.51 |
| O=C(c1ccco1)N1CCN(c2ccc(F)cc2)CC1 | 0.85 |
| CCCCCN(C(=O)CCC(=O)OCCOc1ccccc1Cl)c1c(N)n(CCCC)c(=O)[nH]c1=O | 0.93 |
| O=C(NCc1ccco1)C1CCCN(S(=O)(=O)c2ccccc2)C1 (stereo not drawn) | -0.64 |
| N#C/C(=C/c1ccccc1[N+](=O)[O-])c1nc(C2CC2)cs1 | -3.25 |
| CC(C)OC(=O)Nc1ccc2c(c1)N(C(=O)CCN1CCOCC1)c1ccccc1CC2 | -1.89 |
| Cc1cc(SCC(=O)Nc2ccccc2)n2ncc(-c3ccccc3)c2n1 | 0.87 |
| COC(=O)c1c(C)nc(C)c(C(=O)OC)c1-c1ccc(OC)cc1 | 0.24 |
| COc1ccccc1NC(=O)c1sc2nc(C)cc(C)c2c1N | -0.39 |
| CCCNC(=O)C1(CC2CC(c3ccccc3)=NO2)CCN(C(=O)CCCCCBr)CC1 (stereo not drawn) | 0.37 |
| Cc1noc(C)c1COc1ccc2ccc(=O)oc2c1 | 0 |
| N#C/C(=N\Nc1ccccc1F)C(=N)N1CCCCC1 | -0.27 |
| COc1ccc(C(O)(C(C)C)C(CN2CCOCC2)c2ccc(Cl)cc2)cc1 (stereo not drawn) | -0.13 |
| O=C(Nc1ccccc1)C1CC(O)CN1S(=O)(=O)c1ccc([N+](=O)[O-])cc1 (stereo not drawn) | 0.01 |
| CC(=O)Nc1nnc(SCC(=O)NC2CCCC2)s1 | -0.19 |
| Cc1cccc(NC(=O)CSc2nnc(-c3ccco3)o2)c1 | -0.57 |
| CCN(CC)S(=O)(=O)c1cccc(C(=O)NC2=NCCS2)c1 | 0.01 |
| COc1ccc(N2CCN(C(=O)CCN3C(=S)NC(C)(C)CC3C)CC2)cc1 (stereo not drawn) | 2.01 |
| O=C(CSc1nccc(=O)[nH]1)Nc1cc(C(F)(F)F)ccc1N1CCOCC1 | 1.68 |
| Nc1nnc(SCC(=O)c2cccc([N+](=O)[O-])c2)s1 | 0.47 |
| COc1ccc(NC(=O)c2ccccc2NC(=O)COc2ccccc2)cc1 | -0.02 |
| CCOC(=O)N1CCN(S(=O)(=O)N2CCCC(C(=O)NCc3ccc(OC)cc3OC)C2)CC1 (stereo not drawn) | -0.18 |
| O=[N+]([O-])c1ccc(S(=O)(=O)NCC(c2cccnc2)N2CCc3ccccc3C2)cc1 (stereo not drawn) | -0.15 |
| COc1ccc(/C=N/NC(=O)/C(=C/c2ccccc2)CCO)cc1 | -0.01 |
| Cc1ccccc1N=C1c2ccccc2C(=O)C1[N+](=O)[O-] (stereo not drawn) | -1.87 |
| COc1ccc(C2C(C(=O)NCc3ccco3)CCC(=O)N2c2ccc(OC)cc2)cc1 (stereo not drawn) | 0.07 |
| COc1cccc(NC(=O)c2ccccc2-c2ccccc2C(=O)O)c1 | 0.01 |
| COc1ccc(C(=O)NCCn2ccc3ccccc32)c(OC)c1 | -0.48 |
| CCn1c2ccccc2c2cc(NC(=O)CN(C)CC(=O)Nc3ccc(N4CCOCC4)cc3)ccc21 | 0.45 |
| O=C(CC(=O)Nc1ccc(Cl)cc1)N/N=C\c1cccc(F)c1 | -1.32 |
| COC(=O)N/N=C\c1ccccc1OC/C=C/c1ccccc1 | -1.67 |
| Cc1ccc(NS(=O)(=O)N2CCOCC2)cc1 | -0.64 |
| O=C(COC(=O)CNC(=O)c1ccc(Br)cc1)NCCC1=CCCCC1 | 0.71 |
| CCOc1ccccc1-c1nc(-c2ccc(NC(=O)Cc3ccccc3OC)cc2)no1 | 0.98 |
| Cc1cccc(NCN2C(=O)C3C4C=CC(C4)C3C2=O)c1 (stereo not drawn) | -1.04 |
| Cc1nnsc1NC(=O)OCc1ccc(C(C)(C)C)cc1 | -0.23 |
| CS(=O)(=O)Cc1cccc(C(=O)NC2CCSc3ccccc32)c1 (stereo not drawn) | 1.12 |
| O=C(Cn1cc(/C=C\[N+](=O)[O-])c2ccccc21)Nc1ccccc1 | -0.24 |
| NC(=O)CC1SC(N)=NC1=O (stereo not drawn) | -1.32 |
| O=c1[nH]cnc2c1sc1nc3c(c(-c4ccc(Cl)cc4)c12)CCC3 | -0.07 |
| Cc1ccc(F)cc1NCC(=O)Nc1ccc(Cl)cc1F | -0.34 |
| CCOC(=O)CCCSc1nc2sc3c(c2c(=O)[nH]1)CCC3 | -0.15 |
| CCCCNC(=O)NNC(=O)c1ccoc1C | -0.03 |
| Cc1ccc(/C=N/NC(=O)Cn2nc(C)c(Br)c2C)o1 | 0.44 |
| CS(=O)(=O)Nc1ccc2c(c1)ncn2CCc1ccccc1 | 0.67 |
| Cc1cc(NC(=O)c2cccs2)n(-c2ccccc2)n1 | -0.37 |
| COc1ccc(NC(=O)Nc2nnc(N3CCC(C)CC3)s2)cc1OC | -0.01 |
| O=S(=O)(c1cccs1)N1CN(Cc2ccco2)c2nc3ccccc3nc21 | -0.77 |
| COc1ccc(Oc2ccc(N/C=C3/CCCC3=O)cc2)cc1 | -0.14 |
| CN(CC(=O)Nc1cccnc1)S(=O)(=O)c1cc(Cl)ccc1Cl | 0.29 |
| Cc1ccc(C2/C(=C(\O)c3ccc4c(c3)OCCO4)C(=O)C(=O)N2CC2CCCO2)cc1 (stereo not drawn) | 0.89 |

(cont.)
| mol | Kir21 block |
| --- | --- |
| O=C(Cn1c(=O)n(CC2CCCO2)c(=O)c2ccccc21)c1ccc(Cl)c(Cl)c1 (stereo not drawn) | 0.3 |
| Cc1ccc2cc(CN(CCO)Cc3nnnn3Cc3ccc(F)cc3)c(=O)[nH]c2c1 | -0.01 |
| CC1(C)CC(=O)C2=C(C1)OC(N)=C(C#N)C2c1ccc2c(c1)OCO2 (stereo not drawn) | -0.25 |
| CC(C)CN1C(=O)C(=O)N(CC(=O)NCc2ccc3c(c2)OCO3)C1=O | -4.14 |
| O=C(C1CCCC1)N1CCC(CC2CC(c3cccc(Br)c3)=NO2)(C(=O)NCC2CCCCC2)CC1 (stereo not drawn) | 0.95 |
| Cc1cccc2cc(CN(CC3CCCO3)C(=O)c3ccco3)c(=O)[nH]c12 (stereo not drawn) | -0.06 |
| Cn1c(SCC(=O)NC2CCCCC2)nnc1-c1ccccc1F | -0.92 |
| CCC1=C(OC(=O)c2ccccc2)C(C)(C)C(c2ccccc2)OC1=O (stereo not drawn) | -1.06 |
| CCc1nnc(NC(=O)c2csc3c2CCC(C)C3)s1 (stereo not drawn) | -0.78 |
| COc1cccc(N2C(=O)CC(c3c[nH]c4ccccc34)C2=O)c1 (stereo not drawn) | -1.27 |
| O=C(N/N=C/c1c(Cl)cccc1Cl)c1ccccc1F | 0.05 |
| COc1cccc(C2(O)CCN(C(=O)c3cccs3)CC2)c1 | 0.21 |
| O=C(Oc1ccc2cc(Br)ccc2c1)N1CCCCCC1 | -1.83 |
| COc1cccc(C2=CC(c3ccccc3)n3ncnc3N2)c1 (stereo not drawn) | -1.55 |
| CC1CCN(S(=O)(=O)c2ccccc2[N+](=O)[O-])CC1 | -2.14 |
| COc1cccc(CN(C)C(=O)C(CCSC)NS(=O)(=O)c2ccc3c(c2)OCCO3)c1OC (stereo not drawn) | -1.63 |
| COc1ccc(OC)c(-c2cc(C(=O)Nc3c(C)n(C)n(-c4ccccc4)c3=O)no2)c1 | -1.44 |
| COc1cccc2sc3ccc(C#CC4(O)CCCCC4)cc3c(=O)c12 | 1.21 |
| Cc1c(C=O)c2ccccn2c1C(=O)c1ccncc1 | 0.03 |
| COc1ccc(OCC(=O)N2c3ccccc3CCc3ccccc32)cc1 | 1.14 |
| NCCCC[C@H]1CNC(=S)N1CCc1cccc(F)c1 | 0.07 |
| CN(C)Cc1c(C#N)c2ccccc2n1C | -0.53 |
| COc1cc(C(=O)Nc2nnc(C(C)(C)C)s2)c([N+](=O)[O-])cc1OC | 2.25 |
| Cc1cc(C)cc(N(C(=O)c2csnn2)C(C(=O)NC(C)(C)C)c2ccncc2)c1 (stereo not drawn) | -0.1 |

Another view of some results above:
structure: COc1ccc(OC)c(-c2cc(C(=O)Nc3c(C)n(C)n(-c4ccccc4)c3=O)no2)c1
  Kir21 block: -1.44

structure: Cc1c(C=O)c2ccccn2c1C(=O)c1ccncc1
  Kir21 block: 0.03

structure: Cc1cc(C)cc(N(C(=O)c2csnn2)C(C(=O)NC(C)(C)C)c2ccncc2)c1 (stereo not drawn)
  Kir21 block: -0.1

Going on with the list:
| mol | Kir21 block |
| --- | --- |
| COC(=O)C[C@H]1c2cc(C(F)(F)F)ccc2S(=O)(=O)N1c1ccc(N(C)C)cc1 | -0.43 |
| COc1ccc(Cl)cc1NC(=O)NCc1ccco1 | 1.33 |
| Cc1nnc(NC(=O)CSc2nnc(C(C)NC(=O)c3ccccc3F)n2C)s1 (stereo not drawn) | 0 |
| O=C(N/N=C/c1ccc(-c2ccc([N+](=O)[O-])cc2)o1)C(O)c1ccccc1 (stereo not drawn) | -0.29 |
| CCCOc1nc2c(c(=O)n(C)c(=O)n2C)n1Cc1cccc2ccccc12 | 1.28 |
| CCCC(=O)Nc1cc(-c2nnc(OC)c3ccccc23)ccc1N1CCOCC1 | 0.2 |
| O=C(N/N=C\c1ccc(-c2ccc(Cl)c(Cl)c2)o1)C(=O)N1CCCC1 | -2.1 |
| COc1ccc(N(CC(=O)N2CCC(C(N)=O)CC2)S(=O)(=O)c2ccccc2)cc1 | 0.05 |
| O=[N+]([O-])c1ccc(O)c(NC(=S)Nc2ccccc2)c1 | -0.24 |
| CC1CCN(S(=O)(=O)c2ccc3ncn(CC(=O)N4CCN(C)CC4)c(=O)c3c2)CC1 | 2.29 |
| COc1ccc(C)cc1NC(=O)Nc1ccc2c(c1)CCC2 | -0.24 |
| CCCc1ccc(C(=O)NNc2cccc(C)c2)cc1 | -0.71 |
| CCn1cc(/C=N\NC(=O)c2cc(-c3ccccc3OC)nc3ccccc23)c(C)n1 | -0.05 |
| OC1CN=C2CCCc3c2n(c2ccc(Cl)cc32)C1 (stereo not drawn) | -1.88 |
| CN(Cc1ccccc1)C(=O)NC1CCCCC1 | -0.01 |
| O=[N+]([O-])c1ccc(-c2nc(NCc3ccccc3)c3ccccc3n2)cc1 | 2.06 |

The closing five entries of the part before lead into the next.
| mol | Kir21 block |
| --- | --- |
| CCCc1ccc(C(=O)NNc2cccc(C)c2)cc1 | -0.71 |
| CCn1cc(/C=N\NC(=O)c2cc(-c3ccccc3OC)nc3ccccc23)c(C)n1 | -0.05 |
| OC1CN=C2CCCc3c2n(c2ccc(Cl)cc32)C1 (stereo not drawn) | -1.88 |
| CN(Cc1ccccc1)C(=O)NC1CCCCC1 | -0.01 |
| O=[N+]([O-])c1ccc(-c2nc(NCc3ccccc3)c3ccccc3n2)cc1 | 2.06 |
| C=CCn1c(SCC(=O)NCCc2ccccc2)nnc1C(C)NC(=O)c1cccs1 (stereo not drawn) | -0.01 |
| Cc1cccc(C(C(=O)NC2CCCCC2)N(Cc2cccnc2)C(=O)c2csnn2)c1 (stereo not drawn) | 0.09 |
| COC(=O)/C=C1\S/C(=N/NC(=O)c2ccc(OC)cc2)NC1=O | -0.41 |
| CCN(CC)CCN(C)C(=O)CCc1nnc(-c2ccc(C)s2)o1 | 0.01 |
| O=[N+]([O-])c1ccc(/C=[N+](\[O-])[C@@H]2CCCC[C@@H]2/[N+]([O-])=C/c2ccc([N+](=O)[O-])o2)o1 | 1.83 |
| Cc1snc(SCC(=O)N/N=C(\N)COc2cccc(C(F)(F)F)c2)c1C#N | 0.41 |
| O=[N+]([O-])c1cc(/C=N/N2CCN(c3ccccc3)CC2)ccc1Cl | 0.92 |
| Cn1c(Cc2ccc3c(c2)OCO3)nnc1SCC(=O)NC1CCCC1 | 0.6 |
| COc1ccc2ccccc2c1/C=N\n1c(C)cc(C)c(C(N)=O)c1=O | 0.98 |
| CCN(CC)CC#CC(OC)(c1ccccc1)c1ccccc1 | -2.21 |
| OCc1c(Cl)nc2ccccn12 | 0.47 |
| COc1ccc(CC(=O)Oc2ccc(C#N)cc2)cc1 | 0.03 |
| CCOC(=O)C(NC(C)=O)C(=O)Nc1ccc(OC)cc1 (stereo not drawn) | 1.2 |
| Cc1nn(-c2ccccc2)c2sc(C(=O)N(Cc3ccco3)C(C)C(=O)NC(C)(C)C)cc12 (stereo not drawn) | -0.01 |
| CC(=O)Nc1ccc(C2NC(=O)CCC2[N+](=O)[O-])cc1 (stereo not drawn) | -0.18 |
| CSc1ccccc1C(=O)NCc1ccccc1C | -1.25 |
| CCn1c(=O)cc(OCC(=O)O)c2ccccc21 | 2.39 |
| Cc1cccc(OCCNc2cc(N3CCN(CCO)CC3)ccc2[N+](=O)[O-])c1 | -0.3 |
| O=C(CN1CCN(c2ccccn2)CC1)Nc1ccc(Oc2ccccc2)cc1 | -0.02 |
| CCOC(=O)Cn1nc(NC(=O)c2ccc(C(=O)OC)cc2)cc1C | 0.01 |
| CCc1cc(C(=O)c2ccccc2)c(N)s1 | 2.03 |
| CC(=O)c1c(C)[nH]c(C(=O)CSc2nnc(-c3ccccc3)o2)c1C | 1.59 |
| O=C(C1CCC1)N1CCc2cc(S(=O)(=O)NCCCN3CCCCC3)ccc21 | -0.02 |
| CCOC(=O)C(=O)C1=C(N2CCOCC2)/C(=C\c2cccc([N+](=O)[O-])c2)CC1 | -1.82 |
| Cc1oc(-c2ccccc2F)nc1CS(=O)CC(=O)NCc1ccc(Cl)cc1 (stereo not drawn) | 1.03 |
| COc1ccc(CCC(=O)NCCc2ccc(Cl)cc2)cc1 | 1.26 |
| COCCNC(=O)C1CCN(S(=O)(=O)N2CCC3(CC2)OCCO3)CC1 | -0.22 |
| CCOC(=O)c1c(NC(=O)CN2CCOCC2)sc(C(=O)NC)c1C | 0.11 |
| CC(=O)/C(N=Nc1ccc(-n2ccc(C(F)(F)F)n2)cc1)=C(\C)O | -0.03 |
